From PubChem BioAssay
YopH inh – YopH tyrosine phosphatase inhibitors, primary screen, biochemical, fluorescence Ex485/Em525; YopH tyrosine phosphatase [Yersinia enterocolitica]; inhibition, %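 (about 10 µM by stock and volumes)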; 0.16% of 140,000 active; AID 898, 2007;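 active means inhibition of 50% or more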;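 further: controls were vehicle for no effect and minimum signal wells for full effect; inactives centre near -20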
RecA splice inh – Mtb RecA intein splicing inhibitors, primary screen, biochemical, fluorescence, HTS; Protein RecA (Mycobacterium tuberculosis (strain ATCC 25618 / H37Rv)), P9WHJ3; cell-free RecA intein splicing; inhibition, %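 (about 9 µM by stock and volumes)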; 0.75% of 290,000 active; AID 2221, 2009; in the data active means inhibition above about 30%; inconclusive means no clear call, values can overlap the other calls;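 further: 0% = vehicle wells and 100% = reference inhibitor control wells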
Target sequence (P9WHJ3 whole entry, looked up, canonical isoform): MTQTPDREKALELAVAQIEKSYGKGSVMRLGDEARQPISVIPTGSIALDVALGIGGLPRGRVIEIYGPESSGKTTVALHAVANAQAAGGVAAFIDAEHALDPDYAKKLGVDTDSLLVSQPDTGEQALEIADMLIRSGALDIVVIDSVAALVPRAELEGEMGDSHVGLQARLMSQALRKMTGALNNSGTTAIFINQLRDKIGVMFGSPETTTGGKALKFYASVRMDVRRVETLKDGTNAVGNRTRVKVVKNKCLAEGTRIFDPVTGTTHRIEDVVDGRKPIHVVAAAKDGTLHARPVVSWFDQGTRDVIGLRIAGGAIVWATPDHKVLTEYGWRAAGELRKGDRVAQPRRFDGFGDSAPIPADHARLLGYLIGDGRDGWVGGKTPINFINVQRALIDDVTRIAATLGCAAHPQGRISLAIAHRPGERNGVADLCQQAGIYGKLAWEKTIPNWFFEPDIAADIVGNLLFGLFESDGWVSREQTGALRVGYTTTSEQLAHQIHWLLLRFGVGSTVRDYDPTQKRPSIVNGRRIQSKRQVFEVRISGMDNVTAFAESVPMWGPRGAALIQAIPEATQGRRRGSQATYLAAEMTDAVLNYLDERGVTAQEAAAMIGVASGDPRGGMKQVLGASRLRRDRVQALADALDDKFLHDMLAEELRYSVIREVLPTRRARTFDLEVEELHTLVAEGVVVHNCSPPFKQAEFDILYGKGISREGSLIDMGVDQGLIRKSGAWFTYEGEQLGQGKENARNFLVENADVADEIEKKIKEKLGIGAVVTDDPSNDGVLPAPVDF
Arbovirus inh – antivirals against arbovirus infection, primary screen, cell-based, full library, 10K replicate subset; inhibition, % at 10 µM; 0.37% of 200,000 active; arbovirus infection cell-based antiviral screen;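 active means inhibition from about 30%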;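 further: bluetongue infection of BSR cells; cell survival read as ATP light after 72 h; 0% = infected wells without compound and 100% = uninfected wells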
Mtb bLac sens – beta-lactam sensitization of Mtb H37Rv, H37Rv; 0.27% of 330,000 active; M. tuberculosis H37Rv growth with meropenem, percent inhibition; hits of this screen are not shown here; inhibition, % at 25 µM;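 active means about 74% or more and at least 40 points above the plate without the antibiotic, then above 30% in a dose series; inconclusive means first-round hits that could not be retested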;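 further: growth measured after seven days incubation then overnight dye step; 0% = bacteria only wells and 100% = bacteria with antibiotic; twin plates without the antibiotic show which effects depend on it; some results filed as inactive read as strong as hits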
Mtb H37Rv – M. tuberculosis H37Rv growth inhibitors, H37Rv strain (AID 1626). M. tuberculosis H37Rv growth inhibition; higher % means a stronger effect. one-dose inhibition, % at 10 µM; IC50 in µM for titrated hits. 0.95% of 220,000 active;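 active means confirmed in a dose series; inconclusive means inhibition above 80% but not taken into the dose series; inactive means below 80% or under 30% at every dose of the series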;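 further: bacteria incubated seven days before Alamar blue readout; 0% = bacteria only wells and 100% = bacteria with antibiotic wells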
Arbovirus inh repeat – recorded beside Arbovirus inh, whose call it bears; inhibition, %; measured here: 10K subset replicate screen; many hits read low in the repeat;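 first of two repeat runs on a subset; 0% = infected and 100% = uninfected wells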
* hit, by the source's call; ? = inconclusive; nt = not tested or not shown. Only part of the results is shown; count on the stated rates, not on these rows.

The opening three compounds, to show the layout:
SMILES | YopH inh | RecA splice inh | Arbovirus inh | Mtb bLac sens | Mtb H37Rv | others
COC(=O)c1c(C)oc2ccc(N(C(=O)Oc3ccccc3)S(=O)(=O)c3ccccc3)cc12 | -21 | 3.5 | 8 | -4 | 14%
Cc1ccc(NC(=O)C(=O)NCCN2CCN(C(=S)Nc3ccccc3)CC2)cc1 | -23 | -0.3 | 3 | 6 | 7%
Brc1ccccc1-n1nnc(-c2cnc3ccccc3c2)n1 | nt | 8.9 | nt | 32 | -3%

This part in full, from the start:
SMILES | YopH inh | RecA splice inh | Arbovirus inh | Mtb bLac sens | Mtb H37Rv | others
COC(=O)c1c(C)oc2ccc(N(C(=O)Oc3ccccc3)S(=O)(=O)c3ccccc3)cc12 | -21 | 3.5 | 8 | -4 | 14%
Cc1ccc(NC(=O)C(=O)NCCN2CCN(C(=S)Nc3ccccc3)CC2)cc1 | -23 | -0.3 | 3 | 6 | 7%
Brc1ccccc1-n1nnc(-c2cnc3ccccc3c2)n1 | nt | 8.9 | nt | 32 | -3%
O=C(Nc1ccc2c(c1)OCO2)C1CCN(S(=O)(=O)c2ccc3c(c2)OCCO3)CC1 | -1 | -2.0 | 5 | 2 | 7%
CCN1CCCC1CNC(=O)C1CCN(Cc2nc(-c3cccc(Br)c3)oc2C)CC1 (stereo unspecified) | -7 | 0.9 | -35 | -11 | nt
Cc1ccc(/C(=N/Nc2nc3ccccc3s2)C2=C(O)c3ccccc3C2=O)cc1 | nt | 19 | 2 | 2 | 10%
CN(C)CCNC(=O)C12CC3(C)CC(C)(CC(C)(C3)C1)C2 | -4 | -1.9 | 9 | -3 | 3%
CCOC(=O)C1=NN(c2ccc(Cl)cc2)/C(=C/C2=NCCc3cc(OC)c(OC)cc32)S1 | nt | 1.6 | nt | 64 | nt
COc1ccc(CCNC(=O)C2(C)CCC(=O)N2Cc2ccc(F)cc2Cl)cc1OC (stereo unspecified) | nt | -0.8 | nt | -1 | nt
Cn1c2ccccc2c2cnn(CC(=O)N3CCCCC3)c(=O)c21 | nt | 2.1 | nt | -2 | -12%
Cc1cc(C)c(S(=O)(=O)CCC(C)C)c(=O)[nH]1 | nt | -6.5 | -2 | -1 | -7%
COC(=O)/C=C1/N/C(=N\c2nc(C)cc(C)n2)N(c2ccc(Cl)cc2)C1=O | -33 | 2.4 | -7 | 3 | -7%

Reprinted from the part before: two entries, followed by the next part.
SMILES | YopH inh | RecA splice inh | Arbovirus inh | Mtb bLac sens | Mtb H37Rv | others
Cc1cc(C)c(S(=O)(=O)CCC(C)C)c(=O)[nH]1 | nt | -6.5 | -2 | -1 | -7%
COC(=O)/C=C1/N/C(=N\c2nc(C)cc(C)n2)N(c2ccc(Cl)cc2)C1=O | -33 | 2.4 | -7 | 3 | -7%
Cn1cnc(S(=O)(=O)NC2CCN(Cc3ccccc3)CC2)c1 | nt | -0.8 | nt | -5 | nt
Cc1ccccc1NC(=O)Cc1nnc(SCc2ccc(Cl)c(Cl)c2)n1C | -50 | -1.1 | 5 | -5 | -3%
CC(=O)c1cccc(NC(=O)C2CCCC2)c1 | -18 | 2.7 | 3 | 2 | -4% | Arbovirus inh repeat=3
COC(=O)c1ccc(CSc2nc(C(F)(F)F)c3c(c2C#N)CCC3)o1 | -34 | 9.5 | -7 | 99 | nt
COc1ccc(C2=NOC(C(=O)N3CCCCCC3)C2)cc1OC (stereo unspecified) | -23 | -1.4 | 1 | nt | 0%
Cc1ccc2c(c1)N(CC(=O)NC1CCCC(C)C1C)C(=O)c1cccnc1O2 (stereo unspecified) | nt | 2.3 | nt | 0 | nt
CN(CCCNC(=O)c1cn(C)c2ccc(S(=O)(=O)N(C)C)cc2c1=O)c1ccccc1 | -18 | -1.7 | 1 | 72 | -13% | Arbovirus inh repeat=-8
O=C(CNC(=O)c1ccco1)Nc1ccncc1 | nt | 0.3 | nt | -5 | nt
Cc1noc(C)c1CSc1ccccc1C(=O)N1CCN(c2ccccc2)CC1 | -24 | 4.0 | 6 | -7 | -1% | Arbovirus inh repeat=10
Cc1ccc(S(=O)(=O)N2CCCCC2)cc1C(=O)N(C)CCOc1ccccc1 | nt | 0.2 | nt | -13 | nt
COc1cccc2c1cc1c(=O)n(CC(=O)NC3CCCCC3)nc(C)n12 | nt | 2.3 | nt | 4 | nt
COc1ccc(N(CC(=O)N/N=C/c2ccc(N(C)C)cc2)S(=O)(=O)c2ccccc2)cc1 | nt | 1.4 | nt | 7 | nt
COc1ccc(N2CCN(C(=O)c3ccc(N(C)S(=O)(=O)c4ccc(C)cc4)cc3)CC2)cc1 | nt | 0.7 | 0 | 5 | -12%
CN1CCN(C(=O)c2ccc3c(c2)OCCO3)CC1 | -10 | -0.4 | 2 | -2 | -2%
COC(=O)C1=C(C)N(Cc2cccnc2)C(=O)C1 | 6 | nt | 6 | -3 | -5% | Arbovirus inh repeat=1
Cc1cccc(S(=O)(=O)Nc2ccc(-c3nc4ccc(C)cc4s3)cc2)c1 | -27 | 1.2 | 5 | -3 | -5%
CC(=O)c1cc(-c2nc3ccccc3n2C)n(C)c1 | -31 | 2.6 | 2 | 0 | -10%
Cc1cc(C(=O)N/N=C/c2ccncc2)c(C)o1 | nt | 4.9 | nt | -2 | -1%
COC(=O)[C@H]1Cc2c([nH]c3ccccc23)[C@H](c2ccccc2)N1 | nt | -0.8 | nt | ? | nt
Cc1ccccc1NC(=O)/C(C#N)=C\c1cn(CC(=O)O)c2ccccc12 | nt | -6.3 | -3 | 2 | -1%
CN(C)S(=O)(=O)c1cccc(C(=O)N2CCc3ccccc32)c1 | -3 | 3.3 | -1 | -7 | 5%
Cc1cc(NC(=O)COC(=O)[C@H](Cc2c[nH]c3ccccc23)NC(=O)c2ccc(F)cc2)no1 | 14 | 0.7 | -7 | -8 | -3%
CCOc1ccc(Nc2nc(N)c3ccccc3n2)cc1 | nt | 3.2 | nt | 9 | nt
Cn1cccc1Cc1nnc(SCC(=O)Nc2ccc(F)cc2)n1-c1ccc(F)cc1 | -30 | 2.4 | 7 | -3 | 2%
CCOc1ccc(N(C(=O)c2snc(C(N)=O)c2N)C(C(=O)NC2CCCC2)c2ccncc2)cc1 (stereo unspecified) | nt | -0.1 | nt | -5 | nt
C/C(=N\NC(=O)c1cc(-c2cccs2)nc2ccccc12)c1ccccn1 | nt | -3.7 | -23 | 77 | ?
COc1cccc(C(=O)NN2C(=S)N(c3ccccc3)C(=O)C2CC(N)=O)c1 (stereo unspecified) | nt | 2.4 | nt | -7 | nt
CONC(=O)Nc1ccccc1[N+](=O)[O-] | -11 | -2.5 | -1 | 0 | 0%
O=C(CN1C(=O)S/C(=C\c2cccc(Cl)c2)C1=O)NC1C=CS(=O)(=O)C1 (stereo unspecified) | nt | 0.6 | nt | -2 | nt
COCCCNC(=O)CS(=O)(=O)Cc1nc(-c2ccccc2C)oc1C | -28 | -2.8 | 5 | 0 | 0%
COc1ccc(N(C2CSC2)S(=O)(=O)c2ccccc2)cc1 | -17 | -1.3 | -2 | -4 | -6%
COc1ccc(NC(=O)c2cccnc2Nc2ccc(OC)cc2)cc1 | 9 | 1.6 | 16 | 43 | 11%
CCOC(=O)C1CCCN(C(=O)c2cn(CC)c3ccc(S(=O)(=O)N4CCCC4)cc3c2=O)C1 (stereo unspecified) | 6 | nt | 7 | -4 | -6%
c1ccc(CNc2nc(-c3cccs3)nc3ccccc23)nc1 | nt | 2.3 | 4 | 3 | 10%
Cc1cccc(NC(=O)C2CCN(S(=O)(=O)c3c(C)noc3C)CC2)c1 | nt | -3.4 | nt | 6 | nt
CCn1cc(C(=O)NCc2ccccc2)c2ccccc21 | nt | -1.9 | 2 | 3 | 0%

Arranged by length of the SMILES (largest number first): three of the compounds above
SMILES | YopH inh | RecA splice inh | Arbovirus inh | Mtb bLac sens | Mtb H37Rv | others
COc1cccc(C(=O)NN2C(=S)N(c3ccccc3)C(=O)C2CC(N)=O)c1 (stereo unspecified) | nt | 2.4 | nt | -7 | nt
C/C(=N\NC(=O)c1cc(-c2cccs2)nc2ccccc12)c1ccccn1 | nt | -3.7 | -23 | 77 | ?
COc1ccc(NC(=O)c2cccnc2Nc2ccc(OC)cc2)cc1 | 9 | 1.6 | 16 | 43 | 11%

Additional structures
SMILES | YopH inh | RecA splice inh | Arbovirus inh | Mtb bLac sens | Mtb H37Rv | others
CCOc1ccc2nc(NCCCNC(=O)c3cc(OC)c(OC)c(OC)c3)c(C#N)cc2c1 | nt | -1.2 | nt | -1 | nt
COc1ccc(N(C(=O)c2cccc([N+](=O)[O-])c2)S(=O)(=O)c2ccc3c(c2)n(C)c(=O)n3C)cc1 | -23 | 25 | 3 | -14 | 1%
Cc1ccc(Cl)c(OCCCN(C)Cc2ccccc2)c1 | nt | 0.2 | nt | -14 | 9%
OC(CNC1CCCC1)COCCOc1ccc(Br)cc1 (stereo unspecified) | nt | 0.8 | nt | -7 | 8%
CS(=O)(=O)c1ccc(S(=O)CC(=O)Oc2ccc(Cl)cc2)c([N+](=O)[O-])c1 (stereo unspecified) | nt | 21 | -8 | 5 | -8%
COc1ccc(Nc2nc(C)c3ccccc3n2)cc1 | -19 | -1.2 | -11 | -4 | 83%
O=C(O/N=C\c1ccc(N2CCCCC2)c([N+](=O)[O-])c1)c1cccc(C(F)(F)F)c1 | -25 | -0.5 | 8 | 42 | 13%
Cn1c(=O)n(CC(N)=O)c2ccccc21 | -64 | -0.7 | 7 | -14 | 4%
Cc1cccc(-c2c(O)cc(=O)[nH]c2Cl)c1 | nt | nt | 2 | -8 | nt
Cc1ccc(OC(C)C(=O)N2CCc3ccccc32)cc1 (stereo unspecified) | -3 | 2.0 | 0 | -12 | 0%
CCOc1ccc(S(=O)(=O)N(CC(=O)NCc2cccnc2)c2ccc(C)cc2)cc1 | nt | -1.3 | nt | -1 | nt
Cc1ccccc1Cn1ccc(NC(=O)c2nn3cccnc3c2Cl)n1 | nt | -2.3 | -9 | -9 | -3%
O=C(O)[C@@H](c1ccccc1)N1Cc2ccccc2C1=O | -25 | 32* | 7 | -3 | -6% | Arbovirus inh repeat=9
Cc1cc(NC(=O)CCC(=O)N(Cc2ccco2)C(C(=O)NCC2CCCO2)c2ccncc2)no1 (stereo unspecified) | nt | -3.0 | 0 | 0 | 5%
COC(=O)Cc1csc(NC(=O)CSc2nnc3ccccn23)n1 | nt | -1.5 | -4 | 3 | 0%
O=C(CN(C(=O)CNS(=O)(=O)c1ccc(F)cc1)c1cccc(F)c1)NCC1CCCO1 (stereo unspecified) | nt | 1.2 | nt | -2 | nt
Cc1ccc(C(=O)N/C(=C\c2ccccc2)C(=O)OCc2ccccc2)cc1 | -20 | -1.7 | 7 | -9 | 13%
O=C(NCC1CCCN(C2Cc3ccccc3C2)C1)c1cccs1 (stereo unspecified) | nt | -6.9 | nt | 3 | nt
Cc1ccc(N2C(=O)[C@@H]3[C@H](C2=O)C2c4ccccc4C=CN2[C@@H]3C(=O)c2ccco2)c(C)c1 (stereo partly specified) | 95* | 4.2 | nt | 0 | -2%
CC12CCCC[C@@H]1CCC1C2CCC2(C)C1CC[C@@]2(O)CNCCO (stereo partly specified) | nt | -1.0 | nt | ? | nt
CCOC(=O)N=Nc1c(O)n(CC(=O)OC)c2ccccc12 | nt | -0.2 | -1 | -9 | 7%
Cc1csc(=NC(=O)c2ccccc2)n1C | -3 | 2.6 | -2 | 1 | 6%
COc1ccc(OC)c(CCNC(=O)C(C)n2nc(C)c3c(C)n(-c4ccc(C)cc4)nc3c2=O)c1 (stereo unspecified) | nt | 5.0 | nt | -4 | nt
CC(O)(c1ccccc1)C(c1ccccc1)C1CCCCN1 (stereo unspecified) | nt | 0.7 | nt | -9 | 1%
CC1(C)CC(=O)C2=C(C1)NC(=O)CC2C(=O)NCc1ccc(F)cc1 (stereo unspecified) | -4 | 1.3 | 7 | nt | 3%
Cc1ccc(CNC(=O)CCC(=O)N2CC(C)Oc3ccc(Cl)cc32)cc1 (stereo unspecified) | nt | 0.7 | nt | -7 | nt
O=C(CN(Cc1ccccc1Cl)C(=O)c1csnn1)NC1CCCC1 | nt | 4.2 | nt | -4 | nt
O=C(Oc1cncc(Cl)c1)c1sccc1Cl | nt | 8.9 | nt | 3 | nt
O=C1CSC(=S)N1/N=C/c1c(F)cccc1F | nt | 1.3 | nt | 0 | nt
